SARS PLP yeast: blocks SARS-CoV papain-like protease in a yeast assay. S. cerevisiae expressing SARS-CoV PLpro, growth rescue; control for the full effect not named in the record. Potency, µM (series often up to 32.9 µM), inactives show at the highest dose activity, positive = growth rescue. 330,000 tested, 0.19% active. AID 485353; further: 0% is about no effect; nearly all actives have a fitted effect of over 55% in size; growth read by luminescence after 48 h
Lassa entry inh: blocks Lassa virus binding to or entry into cells. Lassa virus pseudotype entry inhibition, cell reporter; control for the full effect not named in the record. Potency, µM (highest dose often 37.9 µM), for the others: top-dose activity change, negative = inhibition, actives largely listed as inhibitors. 300,000 tested, 1.2% active; active means well fitted inhibition curve with a large enough effect; inconclusive means small, poorly fitted or top-dose-only effect, or effect the other way; inactive means flat fitted curve, though single readings scatter; tested in HEK293 cells; further: on the % scale 0 is the no-effect control and ±100 the full control effect; nearly all actives have a fitted effect of over 50% in size; luciferase read-out
StopGo reporter: FMDV 2A StopGo reporter, luciferase signal; human cells with a luciferase reporter of 2A StopGo recoding; control for the full effect not named in the record; Potency, µM (titrated, usually from 57.9 µM), without a hit: top-dose signal change, negative = less light; 410,000 tested, 1.2% active; AID 1159524; active = well fitted falling curve with a large enough effect; inconclusive = small, poorly fitted or top-dose-only effect; inactive = no such curve, though single readings can be large or run the other way; tested in HEK293T cells; further: on the % scale 0 is the no-effect control and ±100 the full control effect; nearly all actives have a fitted effect of over 45% in size; luciferase light after 4 h
Cruzain inh noDet: inhibitors of Trypanosoma cruzi cruzain without detergent; P25779; purified cruzain, Z-FR-AMC fluorescence, no detergent; Potency, µM, for inactives: max response, negative = inhibition, most hits filed as inhibitors; 200,000 tested, 2.3% active; AID 1476; active means well fitted curve in the direction sought with a large enough effect; inconclusive means small, poorly fitted or top-dose-only effect, or another doubt; inactive means no such curve, though single readings can be large; an effect the other way counts as inactive or inconclusive;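 further: plate controls were enzyme without inhibitor for no effect and buffer without enzyme for full effect; nearly all actives have a fitted effect of over 40% in size; top concentration of the series not given in the record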
Target sequence (P25779 123-467 limits assumed): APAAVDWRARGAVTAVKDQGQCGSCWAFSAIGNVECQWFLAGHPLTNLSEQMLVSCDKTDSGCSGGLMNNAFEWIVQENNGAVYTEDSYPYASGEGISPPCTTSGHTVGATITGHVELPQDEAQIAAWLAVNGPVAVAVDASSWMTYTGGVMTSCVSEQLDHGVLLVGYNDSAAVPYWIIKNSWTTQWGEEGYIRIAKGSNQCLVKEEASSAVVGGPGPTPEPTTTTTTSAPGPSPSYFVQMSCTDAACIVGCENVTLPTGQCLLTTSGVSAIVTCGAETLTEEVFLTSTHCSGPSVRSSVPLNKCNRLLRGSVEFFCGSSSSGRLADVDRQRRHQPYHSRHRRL
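Detergent-free condition (0.00005% Triton X-100) in acetate buffer pH 5.5 with DTT. 1.5 nM enzyme and compound were pre-mixed 15 min, then 2 uM Z-FR-AMC substrate added; reaction progress from fluorescence change between first and third reads (60 s).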
NS1 inh: inhibitors of influenza NS1 protein function; 270,000 tested, 0.4% active; S. cerevisiae slowed by influenza A NS1, growth recovery by OD600; AID 2326; Potency, µM (highest dose often 46.1 µM), for the others: at the highest dose activity, positive = more growth; further: actives are rising curves; nearly all actives have a fitted effect of over 50% in size
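OD600 was taken as the measure of yeast growth restored by compound in an NS1-expressing S. cerevisiae strain. Cells had been washed out of glucose medium and diluted 1:100 into galactose -URA medium, pH 6.0.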
Cruzain Triton: blocks cruzain activity in presence of Triton detergent. 200,000 tested, 0.43% active. P25779. purified cruzain, Z-FR-AMC fluorescence, 0.01% Triton. Potency, µM, inactives show max response, negative = inhibition, actives largely listed as inhibitors; active means well fitted curve in the direction sought with a large enough effect; inconclusive means small, poorly fitted or top-dose-only effect, or another doubt; inactive means no such curve, though single readings can be large; an effect the other way counts as inactive or inconclusive;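 further: plate controls were neutral wells for no effect and buffer without enzyme for full effect; nearly all actives have a fitted effect of over 40% in size; top concentration of the series not given in the record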
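Detergent-containing run (0.01% Triton X-100) in acetate buffer pH 5.5 with 5 mM DTT: enzyme at 1.5 nM final, 15 min compound preincubation at room temperature, then 2 uM Z-FR-AMC substrate. Activity taken as 60 s fluorescence increase at 360/450 nm.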
RE007 growth inh: less growth of the S. pombe RE007 Vpr strain; AID 651644; Potency, µM (top dose mostly 92.2 µM), for the others: top-dose activity change, negative = less growth; 360,000 tested, 0.21% active; S. pombe RE007 Vpr strain, BacTiter-Glo ATP luminescence, 24 h; control for the full effect not named in the record; active = well fitted falling curve with a large enough effect; inconclusive = small, poorly fitted or top-dose-only effect; inactive = no such curve, though single readings can be large or run the other way;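 further: on the % scale 0 is the no-effect control and ±100 the full control effect; nearly all actives have a fitted effect of over 50% in size; the assay follows cell death caused by Vpr and the record does not say whether a fall means rescue or toxicity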
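Fission yeast strain RE007, carrying one chromosomally integrated HIV-1 vpr copy, was seeded at OD 0.01 in PMG+AL medium with 23 nL pinned compound. After 24 h at 30 °C and 99% humidity, viability was read by BacTiter-Glo luminescence.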
MARV entry inh: inhibitors of Marburg virus binding or cell entry. Potency, µM (doses to about 37.8 µM), for the others: at the top dose activity change, negative = inhibition, actives largely listed as inhibitors. 300,000 tested, 1.8% active. Marburg virus pseudotyped entry inhibition, cell reporter; control for the full effect not named in the record; about a third of the inactives were read at about 46 µM. AID 540276; active = well fitted inhibition curve with a large enough effect; inconclusive = small, poorly fitted or top-dose-only effect, or effect the other way; inactive = flat fitted curve, though single readings scatter; tested in HEK293 cells; about a fifth of its hits are not listed in these tables; further: on the % scale 0 is the no-effect control and ±100 the full control effect; luciferase read-out
Numbers without * were called inactive; ? = inconclusive; / = not tested or not shown; & = joins results of further samples; [ ] = remark or other dose. Unless noted, the call rests on the fitted dose curve; in most records, active means well fitted rising curve with a large enough effect; inconclusive means small, poorly fitted or top-dose-only effect; inactive means no such curve, though single readings can be large or run the other way. Potency means the concentration at half of the fitted maximal effect.

SMILES	SARS PLP yeast	Lassa entry inh	StopGo reporter	Cruzain inh noDet	NS1 inh	Cruzain Triton	RE007 growth inh	MARV entry inh
O=C(NNC(=O)C1COc2ccccc2O1)c1ccccc1O (stereo not given)	4%	8%	-17%	/	/	/	10%	3%
N#CCc1ccc(NS(=O)(=O)c2cccs2)cc1	1%	-6%	0%	1%	-1%	-0.1%	-1%	-4%
CSc1nsc(SC)c1NC(=O)Nc1ccccn1	-1%	9%	0%	0%	-11%	2.6%	-15%	8%
O=C(Cc1ccccc1)N(Cc1cccnc1)c1nc2c(F)cccc2s1	/	?	4%	-4%	/	-4.0%	/	/
O=C(O)c1cc(-c2ccc(/C=N/Nc3ccc(Cl)cc3)o2)ccc1Cl	-10%	5%	9%	-20%	-193%	-27%	3%	7%
COC(=O)c1ccn(CC(=O)NC2CCCCC2)n1	3%	/	-5%	/	6%	/	-10%	/
Cc1cn(C2CC3OCC3O2)c(=O)[nH]c1=O (stereo not given)	2%	21%	-2%	5%	-4%	8.2%	1%	0%
CCc1nc2c(sc3nc4c(cc32)COC(C)(C)C4)c(=O)n1CCN(CC)CC	-1%	/	0%	/	-1%	/	10%	/
Cc1nc2ccc([N+](=O)[O-])cc2c(=O)n1Cc1cccc(F)c1	-1%	18%[46.1 µM]	-7%	/	4%	/	4%	-27%[46.1 µM]
CC(C)CCNC(=O)Cn1cc2c(n1)CCCCC2	1%	/	-3%	7%	-5%	-0.3%	14%	/
Cc1ccc(Cl)cc1NC(=S)NCc1cccn1C	2%	8%	34%[activator]	-3%	16%	-0.9%	-4%	-24%
COCCOc1cnn(-c2cc(Oc3ccc(C)cc3)ncn2)c(=O)c1Cl	0%	4%	-18%	4%	-5%	7.8%	-5%	?
COc1ccccc1CNS(=O)(=O)c1cc(C(=O)NCC2CCCO2)c(Cl)cc1Cl (stereo not given)	-9%	-20%[46.1 µM]	12%	/	/	/	-13%	3%[46.1 µM]
NNC(=O)c1ccc(O)cc1O	-2%	2%	-6%	20%	13%	-2.7%	19%	12%
Cc1cccc(COc2ccc(/C=N/NC(=O)c3nnn(-c4nonc4N)c3COc3ccc(F)cc3)cc2)c1	0%	/	7%	/	-7%	/	7%	/
Cc1ccc(NC(=O)c2c(Nc3ccccc3C)sc(C(=O)c3ccccc3)c2N)cc1	/	?	?	6.3µM*	/	-1.4%	/	/
CNCCCOc1ccc(C)cc1OC	0%	9%	-13%	/	2%	/	-3%	?
COCc1cc(=O)oc2cc(NC(=O)c3ccc(C(C)(C)C)cc3)ccc12	0%	?	-3%	/	-7%	/	-10%	?
COc1cc(/C=C(\C#N)C(=O)Nc2ccc(C(=O)O)cc2)ccc1OC(=O)c1cccc(F)c1	0%	10%[46.1 µM]	-7%	/	-18%	/	-8%	0%[46.1 µM]
COc1ccccc1/C=C/C(=O)OC(C)CN1CCOCC1 (stereo not given)	1%	-18%	14%	-13%	12%	-2.5%	-5%	-24%
O=c1/c(=C\c2cccc(O)c2)sc2nc(-c3ccccc3)c(-c3ccccc3)n12	-2%	/	-20%	/	-6%	/	-6%	/
CCC(=O)Nc1nnc(S(=O)(=O)N(C)Cc2ccco2)s1	2%	/	-3%	/	4%	/	11%	/
CCCn1nc(C(=O)N2CCc3ccccc3C2)c2ccccc2c1=O	-14%	-15%	?	4%	-58%	-4.9%	1%	?
O=C(Nc1ccc(NC(=O)C2CC2)nc1)c1cccc(F)c1	13%	-1%	48%[activator]	-4%	-4%	2.7%	-1%	27%
CCOc1ccccc1C(=O)NCCC(=O)O	2%	3%	-9%	0%	7%	0.3%	8%	-6%
COc1ccc(NC(=O)Nc2ccc(F)c(F)c2)c(OC)c1	0%	-7%	-1%	/	-3%	/	-3%	?
Cc1c(C(C)C)c(=O)n(-c2ccc(S(=O)(=O)N3CCOCC3)cc2)n1C	0%	11%	-20%	/	4%	/	20%	17%[46.1 µM]
COc1ccc(CNC(=O)CCn2c(=O)c3cccn3c3ccc(F)cc32)cc1	-5%	/	-17%	/	-3%	/	3%	/
CCOCCCNC(=S)Nc1ccc(S(N)(=O)=O)cc1	12%	16%	-2%	5%	18%	2.2%	55%	?
COCC(C)NC(=O)c1ccc(N(C)C)cc1 (stereo not given)	-11%	?	56%[activator]	-5%	-1%	1.9%	-19%	-1%
CCN(CC)C(=O)c1sc(NC(=O)c2ccc(Br)o2)c(C(=O)OC)c1C	4%	-1%	-2%	5%	-7%	-12%	19%	-17%
CSc1ccc(C(=O)C2CCCN(C(=O)c3nonc3C)C2)cc1 (stereo not given)	6%	-17%	-21%	/	0%	/	1%	-9%
c1cnc(N2CCN(Cc3c[nH]c4ccccc34)CC2)nc1	1%	-5%	?	0%	-4%	-0.8%	-15%	?
CCOC(=O)Cn1c(=O)n(-c2ccccc2OC)c2nc(-c3ccccc3F)nc(C(N)=O)c21	/	-21%[46.1 µM]	-10%	?	/	-5.6%	/	/
Cc1ccc(S(=O)(=O)CC(C)N2CCOCC2)c(S(=O)(=O)CC(C)N2CCOCC2)c1 (stereo not given)	-3%	7%	2%	-3%	-1%	1.9%	5%	-2%
O=C(c1ccccc1)N1N=C(c2ccccc2)CC1c1ccccc1[N+](=O)[O-] (stereo not given)	1%	8%	-15%	9%	19%	3.0%	-13%	12%
CCN(CC)S(=O)(=O)c1cccc(C(=O)Nc2cccnc2)c1	2%	1%	-15%	-1%	2%	-1.3%	22%	-20%
CN(C)C(=O)/C(=C\c1ccncc1)NC(=O)c1ccccc1	1%	6%	8%	/	3%	/	-16%	?
COc1cccc(NC(=O)Cn2c(=O)n(CCCC(=O)NCc3ccc4c(c3)OCO4)c(=O)c3ccccc32)c1	/	?	8%	11%	/	-3.7%	/	-30%[46.1 µM]
O=C(CNC(=O)c1cccs1)c1ccc(Cl)cc1	0%	-16%	2%	/	1%	/	-12%	?
O=C(NC1CCCCC1)C(c1cccnc1)N(C(=O)c1csnn1)C1CCCC1 (stereo not given)	-5%	18%	-9%	-21%	11%	-0.3%	11%	1%[46.1 µM]
O=C1CCC(=O)N1CCSC(=S)N1CCOCC1	-1%	3%	11%	/	-8%	/	-7%	15%[46.1 µM]
COCc1cc(=O)[nH]c2c1c(-c1ccccc1)nn2C	0%	/	-6%	/	2%	/	-7%	/
O=C(O)c1ccc(COc2ccccc2/C=C2/NC(=O)N(c3cccc(Cl)c3)C2=O)cc1	-2%	21%	-10%	?	23%	-12%	-1%	?
COc1ccccc1C(=O)NCC(=O)N/N=C/c1cc(Br)ccc1OCc1ccccc1	17%	?	?	?	?	-7.0%	3%	?
COc1cc2c(cc1OC)C(c1ccc(-c3cc(Cl)ccc3Cl)o1)=NCC2	0%	?	18µM*	-16%	2%	?	0%	?
N/C(=N\OC(=O)c1cc(-c2ccccc2)nc2ccccc12)c1cccnc1	4%	0%	-6%	?	7%	-3.2%	-3%	25%
O=C(COc1ccccc1)N1CCN(c2nnc(-c3ccccc3)c3ccccc23)CC1	3%	-39%	?	-10%	-42%	-1.9%	8%	?
O=C(CN(c1ccc(Cl)cc1)S(=O)(=O)c1ccc(Cl)c([N+](=O)[O-])c1)NCCc1ccccc1	0%	-2%	6%	/	1%	/	-4%	?
O=C(Nc1cccc(-c2nc3ccccc3o2)c1)c1cccc(Br)c1	/	-3%[46.1 µM]	-23%	-3%	/	0.9%	/	/
Cc1cc(C)c(NS(=O)(=O)c2ccccc2)c(C)c1NS(=O)(=O)c1ccccc1	/	/	-2%	/	/	/	14%	?
CCSc1nnc(NC(=O)CCNS(=O)(=O)c2ccccc2F)s1	-8%	1%	-7%	/	-2%	/	7%	-12%[46.1 µM]
CCCCOc1ccc(CNC(=O)c2cnc3sc(N4CCC(C)CC4)nn3c2=O)cc1	/	?	-28%	?	/	7.6%	/	/
CC1CCC(NC(=O)CNC(=O)c2cccs2)CC1 (stereo not given)	-2%	2%[46.1 µM]	20%	/	9%	/	11%	?
Cc1nc(-c2ccc(S(=O)(=O)N3CCN(c4ccccc4)CC3)cc2)co1	3%	/	-8%	/	-3%	/	-9%	/
COc1cccc(Nc2sc(C(=O)c3ccc(F)cc3)c(N)c2C(=O)NCc2ccc(Cl)cc2)c1	/	5%[46.1 µM]	-18%	-16%	/	-3.1%	/	/
CC1CCN(C(c2ccc(F)cc2)c2sc3nc(-c4ccco4)nn3c2O)CC1 (stereo not given)	/	-22%[46.1 µM]	12%	-1%	/	-4.0%	/	/
COc1c(C(=O)Nc2ccc(Br)cn2)ccc2ccccc12	-4%	/	11%	/	-7%	/	-2%	/
Cc1ccc(C)c(N(CC(=O)NN=C2CCN(C)CC2)S(=O)(=O)c2ccccc2)c1	-6%	-12%	-24%	1%	14%	0.9%	23%	-3%
O=Cc1ccc(-c2ccc(F)cc2)o1	-5%	2%[46.1 µM]	-9%	/	/	/	-11%	2%[46.1 µM]

Later entries:
SMILES	SARS PLP yeast	Lassa entry inh	StopGo reporter	Cruzain inh noDet	NS1 inh	Cruzain Triton	RE007 growth inh	MARV entry inh
COc1ccccc1OP(=O)(O)Oc1ccccc1OC	0%	?	17%	/	/	/	-7%	8%[46.1 µM]
O=C(Cc1ccc(Cl)cc1)Nc1ccc(C(=O)N2CCCCC2)cc1	-1%	/	-1%	/	-10%	/	1%	/
COC(=O)/N=C(/Cc1ccc(OC)cc1)c1ccc(OC)cc1	-61%	27%	11%	/	-25%	/	-6%	19%[46.1 µM]
Cc1cc(-c2nc(C)c(-c3nnc(SCC(=O)Nc4ccc(Cl)cc4)n3C)s2)no1	1%	26%[46.1 µM]	-15%	/	-4%	/	13%	-1%[46.1 µM]
CCc1cccc(C)c1NC(=O)CSc1nc2ccncc2[nH]1	5%	19%&-7%[46.1 µM]	-8%&-23%	0%	7%	6.4%	0%	?
Cc1cc(SCC(=O)c2ccc(Cl)cc2)nc(=O)[nH]1	-6%	/	-3%	/	15%	/	-4%	/
COc1ccc(/C=C2\SC(=S)N(CCCC(=O)Nc3cccc(C(=O)O)c3)C2=O)cc1OC	0%	/	-10%	/	-10%	/	-7%	/
O=C(C1CC1)N1CCc2cc(S(=O)(=O)N(CCO)Cc3ccccc3)ccc21	-8%	?	?	12%	-8%	-3.3%	?	-27%

No enrichment for hits. Share with any hit: about 4.5%.
